# Assay outcomes as filed in PubChem.
# NPYLR7 ag: activates Aedes aegypti NPYLR7 receptor | AID 1259423 | activation, % at 10 µM | HEK293T NPYLR7/Galpha15, GCaMP6s calcium fluorescence | hit rate 0.15% among 270,000; in the data active = activation above about 40%;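 note: 0% = vehicle and 100% = reference agonist at the receptor; some compounds past the cut are filed as inactive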
# NPYLR7 ag max-min: also measured in NPYLR7 ag; calls as there; activation, %; measured here: Max-Min RFU normalised activation; some inactives read as strong as hits;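 span of the calcium signal over five minutes; 0% = vehicle and 100% = native peptide agonist; compound fluorescence can raise it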
# * marks the source's active call; other numbers are inactive results; & = joins results of further samples.
# Sample of the layout, four compounds:
# Order of values: NPYLR7 ag	NPYLR7 ag max-min
- COC(=O)CCCC(=O)N1CCC2(CCCN(Cc3ccc(F)c(F)c3)C2=O)C1 (configuration not stated)
    2	-2
- O=c1[nH][nH]c(=O)c2cc(N3CCCC3)ccc12
    1	-2
- Cc1nnc(NC(=O)c2cc(=O)c(OCc3ccc(F)cc3)co2)s1
    3	2
- CCN(CC)S(=O)(=O)c1ccc(Sc2nnc(C)s2)nc1
    2	-1

# Results, previewed entries included:
# Order of values: NPYLR7 ag	NPYLR7 ag max-min
- COC(=O)CCCC(=O)N1CCC2(CCCN(Cc3ccc(F)c(F)c3)C2=O)C1 (configuration not stated)
    2	-2
- O=c1[nH][nH]c(=O)c2cc(N3CCCC3)ccc12
    1	-2
- Cc1nnc(NC(=O)c2cc(=O)c(OCc3ccc(F)cc3)co2)s1
    3	2
- CCN(CC)S(=O)(=O)c1ccc(Sc2nnc(C)s2)nc1
    2	-1
- CCc1ccc[n+](C2=C(c3c(C)[nH]n(-c4ccccc4)c3=O)C(=O)N(c3cccc(C)c3)C2=O)c1
    -8	-4
- CN(C)S(=O)(=O)Nc1cc(Br)ccc1-n1cccn1
    5	0
- COc1cc(NC(=O)c2nnn(-c3cc(Cl)ccc3OC)c2C)cc(OC)c1
    -6	-10
- C=CCn1c(SCc2ccc(C(=O)NC3CC3)cc2)nnc1-c1ccncc1
    15	14
- CC(C)CNc1ccc2c(n1)C(=O)N([C@H](C)C(=O)N[C@@H](C)c1ccc(F)cc1)C2
    -2	-2
- Cc1ccccc1-c1noc(CN2CCCC3(CC2)CNC(=O)O3)n1 (configuration not stated)
    -4	-4
- O=S(=O)(Oc1ccc(Cl)cc1CNCc1ccco1)c1ccc(F)cc1
    -6	-14
- CC1(C)C2CCC(=O)[C@@]3(C)CC[C@](C)(O)[C@H]3C21 (some centres not stated)
    6	1
- CCc1c(C)nn(-c2ccc(C(=O)NCCc3ccc(C)cc3)cc2)c1C
    -7	-6
- CCCS(=O)(=O)N1CCN(c2nc(CC#N)nc(CC)c2Cc2cccc(Cl)c2)CC1
    1	9
- CCc1nc2ccccc2n1CC(O)CN1C(=O)c2ccccc2C1=O (configuration not stated)
    2	2
- O=S(=O)(N1CCOCC1)N1CCCC1Cn1ccnc1 (configuration not stated)
    4	7
- Cc1noc(-c2cccc(F)c2)c1C(=O)NCCCN(C)c1ccccc1
    -1	10
- CC(C)c1ccc(CS(=O)(=O)CCC(=O)N2CCc3ccccc32)cc1
    6	2
- CCN(CC)C(=S)SCC(=O)c1ccc(S(=O)(=O)N2CCCCC2)cc1
    -1	2
- S=C1NC2Nc3ccccc3C2=NN1CC1CCCO1 (configuration not stated)
    -3	-7

# The list goes on; it opens with the 3 that closed the last part.
# Order of values: NPYLR7 ag	NPYLR7 ag max-min
- CC(C)c1ccc(CS(=O)(=O)CCC(=O)N2CCc3ccccc32)cc1
    6	2
- CCN(CC)C(=S)SCC(=O)c1ccc(S(=O)(=O)N2CCCCC2)cc1
    -1	2
- S=C1NC2Nc3ccccc3C2=NN1CC1CCCO1 (configuration not stated)
    -3	-7
- COc1ccc(C(C)NC(=O)C(C)Oc2ccc(F)cc2Br)cc1F (configuration not stated)
    9	8
- O=S(=O)(c1cccc(F)c1)N1CCN(Cc2nc3ncccc3[nH]2)CC1
    1	1
- CCc1nn(-c2ccccc2)c(NC(=O)c2ccc(C)[nH]c2=O)c1C
    19	15
- Cc1cc(Cl)ccc1NC(=O)CCN1C(=O)C2CCCCC2C1=O (configuration not stated)
    3	1
- CCC(NC(=O)c1ccnc(N2CCCCC2C)c1)c1ccncc1 (configuration not stated)
    -19	-19
- CNC(=O)CN1C[C@@H](O)[C@H]2C[C@@H]1Cc1c2n(C)c2ccccc12
    24	27
- Nc1ncnc(N2CCCCC2)c1[N+](=O)[O-]
    0	-2
- COc1ccc(C2=N/C(=C\c3ccc(OC(F)(F)F)cc3)C(=O)O2)cc1OC
    -4	-9
- CCOC(=O)N1CCN(CC(=O)N2N=C(c3ccc(OC)c(OC)c3)CC2c2ccc(OC)cc2OC)CC1 (configuration not stated)
    -2	8
- COc1ccc(-n2c(SC)nc3c(c2=O)SCC3)cc1OC
    -4	-9
- CC1CCCN(S(=O)(=O)NCCCNC(=O)c2ccccc2F)C1 (configuration not stated)
    0	26
- COc1cc(OC)c(C2C3=C(CCCC3=O)N=C3NN(c4ccccc4)C(=O)C32)cc1OC (configuration not stated)
    -3	-5
- CC1=Nc2cccc3cccc(c23)N1c1ccccc1
    4	2
- CC1(C(=O)NS(=O)(=O)c2ccc(Br)cc2)CCN1C(=O)Cc1ccsc1 (configuration not stated)
    2	-1
- Cc1cc(C(=O)N2CCN(CC(O)c3cccc(Cl)c3)CC2)on1 (configuration not stated)
    4	1
- N#CCCN(C(=O)c1cnccn1)c1cccc(C(F)(F)F)c1
    4	2
- CC(C)(C)n1ncc2c1CCN(C(=O)c1ccc(Cl)s1)C2
    1	15
- CC(=O)c1cnn(-c2cc(C)ccc2C)c1C
    -2	-5
- CC(=O)OCC(=O)N1CCN(CC(OCc2cccc(C)c2)c2ccc(Cl)cc2)CC1 (configuration not stated)
    1	-4
- COCCn1c(C)cc(C(=O)COC(=O)Cn2c(C)csc2=O)c1C
    0	-1

# Additional compounds follow:
# Order of values: NPYLR7 ag	NPYLR7 ag max-min
- O=C(CN1CCCC1c1noc(C2CC2)n1)NC1CCCCNC1=O (configuration not stated)
    2	2
- COc1cccc(N2CC(CNC(C)=O)OC2=O)c1 (configuration not stated)
    4	4
- C#CCN1CCCCC1C(=O)N1CCC(n2nnc3c2CCCC3)CC1 (configuration not stated)
    -7	-9
- Cc1nn(C)c(C)c1S(=O)(=O)N1CCN(C2c3ccccc3CCc3ccccc32)CC1
    4	3
- Cc1csc2nc(COC(=O)C34CC5CC(CC(Cl)(C5)C3)C4)cc(=O)n12
    3	4
- O=C(N1CC[C@H](CO)[C@@H](O)C1)C1(c2ccc(F)cc2)CCOCC1
    0	-6
- CC1CN(C(=O)CCn2ccnn2)CC1N1CCOCC1 (configuration not stated)
    4	2
- Cc1cccn2c(=O)c(NC(=O)c3ccc(F)cc3)cnc12
    1	0
- O=C1CSC(c2ccccn2)N1c1cccc(F)c1 (configuration not stated)
    -8	-13
- c1nc(N2C[C@@H]3[C@H](C2)[C@H]2CC[C@@H]3O2)c2[nH]cnc2n1
    21	6
- CS(=O)(=O)c1cc(C(=O)Nc2ccccc2N2CCOC2=O)ccc1Cl
    10	5
- O=C(CN1CCOC(Cn2cncn2)C1)N1CCc2ccccc2C1 (configuration not stated)
    -1	-2
- CC(C)(C)C(O)c1nnc(Nc2cccc(OC(F)(F)F)c2)s1 (configuration not stated)
    2	2
- O=C(CSc1nc(=O)n(CCO)c2c1CCCC2)Nc1ccccc1[N+](=O)[O-]
    -11	-17
- COc1ccc(C(=O)N(Cc2nccn2Cc2ccc(C(F)(F)F)cc2)C2CC2)cc1
    4	11
- O=C(c1cc(COc2c(F)cccc2F)on1)N1CCC(c2ccccc2F)C1 (configuration not stated)
    7	7
- N#Cc1cccc(CN2C(=O)C3(SCCN3C(=O)c3cccc(Cl)c3)c3cc(F)ccc32)c1 (configuration not stated)
    -4	8
- O=C(Nc1nccs1)c1cc(S(=O)(=O)N2CCCCC2)ccc1Cl
    -10	-12
- Cc1noc(C)c1CSc1ncnc2sc3c(c12)CCCCC3
    6	4
- CN1C(=O)CC(CC(=O)N2CCCC2c2ccc(F)cc2)(c2ccc(-c3ccccc3)cc2)C1=O (configuration not stated)
    11	-1

# (list continues)
# Order of values: NPYLR7 ag	NPYLR7 ag max-min
- Cc1ccccc1C(=O)N1CCCC(N2CCN(CCOc3ccccc3)CC2)C1 (configuration not stated)
    17	17
- CSc1ccccc1CNC(=O)C1(C)CCN1CC(C)C (configuration not stated)
    -7	-6
- Cc1ccc(C(=O)NCCc2ccn(-c3ccc(F)cc3)n2)c(=O)[nH]1
    -1	-1
- N#Cc1c(N)n(-c2cccc(N)c2)c2nc3ccccc3nc12
    6	12
- CC(C)CCN1CC(C(=O)NC(C)C)CC1=O (configuration not stated)
    8	4
- NC(=O)c1cccnc1N1CCOC(CCCc2ccccc2)C1 (configuration not stated)
    15	3
- Cc1nn2c(-c3ccccc3)nnc2c2ccccc12
    -12	-19
- CC1(C(=O)NCc2cccnc2)CCN1C(=O)C1(c2ccc(Cl)cc2)CC1 (configuration not stated)
    -5	-11
- NC(=O)c1nc(CN2CCOC(CC(c3ccccc3)c3ccccc3)C2)no1 (configuration not stated)
    10	-6
- Cc1cnccc1CN(C)C(=O)C1CCCN1S(C)(=O)=O (configuration not stated)
    21	14
- CC(=O)c1ccc(NC(=O)CSc2nc3ccc(C)cc3[nH]2)cc1
    -8	-15
- Cc1ccc(C(=O)Nc2n[nH]c(-c3c(F)cccc3F)n2)c(=O)[nH]1
    8	4
- CCOC(=O)c1cc(-c2ccccc2)sc1NC(=O)C(C)Oc1ccccc1 (configuration not stated)
    5	2
- O=C(C1=CCCC1)N1CCC(CO)(Cc2ccc(Cl)cc2)CC1
    -3	12
- CC(C)NC(=O)NC(=O)CSc1nnc(C(F)(F)F)n1C
    2	2
- CN(C)C(=O)Nc1nc(Sc2ccccc2)ns1
    1	-2
- COc1cccc(C(=O)N(Cc2cccnc2)Cc2nccn2Cc2cccc(C(F)(F)F)c2)c1
    -1	4
- O=C(Cn1nc(-c2ccccc2)c2sc(N3CCCC3)nc2c1=O)OCc1ccccc1
    -1	-2
- Cc1ccc(-n2nc(-c3ccccc3)cc2NC(=O)CN(CC(C)C)C(=O)NC2CCCCC2)c(C)c1
    19	22
- Cc1nc(C)c(Cc2ccccc2F)c(N2CCN(C(=O)NC34CC5CC(CC(C5)C3)C4)CC2)n1
    5	17

# Full records as entered above:
# `CC1(C(=O)NCc2cccnc2)CCN1C(=O)C1(c2ccc(Cl)cc2)CC1` (configuration not stated) as listed: NPYLR7 ag: -5; NPYLR7 ag max-min: -11
# `Cc1ccc(C(=O)Nc2n[nH]c(-c3c(F)cccc3F)n2)c(=O)[nH]1` as listed: NPYLR7 ag: 8; NPYLR7 ag max-min: 4
# `Cc1nc(C)c(Cc2ccccc2F)c(N2CCN(C(=O)NC34CC5CC(CC(C5)C3)C4)CC2)n1` as listed: NPYLR7 ag: 5; NPYLR7 ag max-min: 17

# Next records
# Order of values: NPYLR7 ag	NPYLR7 ag max-min
- CCOC(=O)c1ccc(CC2SC(=NN=Cc3ccccc3O)NC2=O)cc1 (configuration not stated)
    -1	-5
- COc1ccc(-c2c3c(nc4sc(C(=O)N5CCCCCC5)c(N)c24)CC(C)(C)CC3=O)cc1
    2	7
- Cc1ccc(-c2noc(C(C)NCC3CN(C)CCO3)n2)cc1F (configuration not stated)
    8&1	4&0
- COc1ccc(CN(C)c2cc(C3CCCNC3)nc(C)n2)cc1 (configuration not stated)
    1	-4
- COCCN(Cc1nc2ccccc2o1)C(=O)c1ccco1
    -4	1
- CCOC(=O)CCC(=O)NC(C)c1nnc(SCc2ccccc2C)n1-c1ccc(C)cc1 (configuration not stated)
    19	18
- CCn1cc(C(CC(=O)NCc2ccco2)c2ccc(Cl)cc2)c2ccccc21 (configuration not stated)
    3	14
- OC(C#CC#CC(O)c1ccccc1)c1ccccc1 (configuration not stated)
    1	-3
- c1ccc(NN=C(N=Nc2nn[nH]n2)c2ccccc2)cc1
    -2	-3
- COc1ccc(C(C)=O)cc1CSc1nnc(C)s1
    2	3
- CC1CCCC(NC(=O)Cn2nc(-n3cncn3)ccc2=O)C1C (configuration not stated)
    -2	-3
- Cc1ccc2c(c1)c(CNC(=O)c1ccc3c(c1)OCO3)nn2C
    -3	-5
- O=c1c(-c2ccco2)[n+]([O-])c2ccccc2n1OCc1ccco1
    3	-7
- CC(C)(C)SCC(=O)N1CCN(S(=O)(=O)c2ccccc2)CC1
    -8	-10
- CCc1ccc(NC(=O)CN2CN(c3ccccc3)C3(CCN(S(=O)(=O)c4ccc(F)cc4)CC3)C2=O)cc1
    -2	11
- CC(C)Cc1noc(CNc2ccccc2N2CCCCCC2)n1
    1	-1
- Cc1ccc(C(=O)NCC(c2ccc(N(C)C)cc2)N(C)C)cc1 (configuration not stated)
    1	-1
- Cc1oc(-c2ccco2)nc1COc1coc(CN2CCOCC2)cc1=O
    14	6
- COc1ccc(C(=O)N(Cc2c(-c3ccc(F)cc3)noc2N2CCOCC2)CC2CC2)cc1
    -4	3
- C#CCNC(=O)CN1CCCN(S(=O)(=O)CC(C)CCC)CC1 (configuration not stated)
    17	13

# Later entries.
# Order of values: NPYLR7 ag	NPYLR7 ag max-min
- O=C(NC(Cc1ccccc1)C(=O)Nc1nnc(-c2ccc(Cl)cc2)s1)c1cccc(F)c1 (configuration not stated)
    -3	-1
- CCc1nn2c(=O)cc(CSc3ccc4ccccc4n3)nc2s1
    0	-1
- Cc1cc(C)c2c(n1)nn1c(NCC3CCCO3)cc(C)nc21 (configuration not stated)
    0	14
- O=C(NC1CCN(c2ccccc2C(=O)NC2CC2)CC1)c1cccs1
    -8	-5
- NC(CCc1ccccc1)c1csc(Nc2ccc(C(=O)NCCCO)cn2)n1 (configuration not stated)
    -10	-13
- CCOC(=O)c1c(NC(=O)c2ccc(Cl)cc2)sc(C(=O)Nc2ccccc2OC)c1C
    -4	1
- Cc1cc(C=NNC(=O)c2ccccc2Br)c(C)n1-c1ccccc1
    1	-1
- Cc1cc(/C=C\c2cc(Cl)sc2Br)cs1
    5	9
- O=C(O)c1ccc(C2CCN(C(=O)CC3CCS(=O)(=O)CC3)C2)cc1 (configuration not stated)
    18	6
- O=C(OCC1OC(n2cnc3c(=O)[nH]cnc32)C2OC(=S)OC12)c1ccccc1 (configuration not stated)
    10	3
- COC(=O)c1ccccc1NC(=O)N1CC(=O)N2CCc3c(F)cccc3C2C1 (configuration not stated)
    -3	4
- COc1ccc(C2(C(=O)N3CCC(Cc4cccc(C(N)=O)c4)C3)CC2)cc1 (configuration not stated)
    4	4

# An excerpt; count on the stated rates, not on these rows.
